Assay outcomes from PubChem.
AmpC inh no det = Promiscuous and Specific Inhibitors of AmpC Beta-Lactamase (assay without detergent) | P00811 | actives 1.8% (n = 71,000) | Potency, µM (series often up to 28.7 µM), inactives show at the highest dose activity change, negative = inhibition | AmpC nitrocefin hydrolysis, absorbance 480 nm, no detergent; potencies from a single point are estimates; active = falling curve, for most hits resting on a single point; inconclusive = weak or doubtful change; inactive = flat or rising curve; further: % of control where 0% means no effect; about half of the hits show no inhibition at the top dose; a quarter of the inactives give rising signals
Target sequence (P00811 whole entry, looked up): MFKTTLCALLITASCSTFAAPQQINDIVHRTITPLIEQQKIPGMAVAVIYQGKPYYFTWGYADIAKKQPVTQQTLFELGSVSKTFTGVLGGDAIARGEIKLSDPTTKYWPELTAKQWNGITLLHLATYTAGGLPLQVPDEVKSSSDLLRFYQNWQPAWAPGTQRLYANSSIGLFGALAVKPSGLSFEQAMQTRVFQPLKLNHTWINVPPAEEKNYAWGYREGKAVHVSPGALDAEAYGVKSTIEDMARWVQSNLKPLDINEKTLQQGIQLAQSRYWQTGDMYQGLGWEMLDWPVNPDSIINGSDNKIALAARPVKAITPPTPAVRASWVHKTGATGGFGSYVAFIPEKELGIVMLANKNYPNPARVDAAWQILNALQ
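AmpC in 20 mM phosphate buffer pH 7.0 was preincubated 15 min at room temperature with compounds. Nitrocefin (800 uM stock) was then added and hydrolysis followed at 480 nm every 20 s for 4 min.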
* marks the source's active call; other numbers are inactive results; ? = inconclusive; [ ] = another dose, or the depositor's remark. Potency means the concentration at half of the fitted maximal effect.

compound | AmpC inh no det
Cc1oc(-c2cccc(Cl)c2)nc1CN1CCCC(C(=O)NCCCN2CCOCC2)C1 (stereo not drawn) | 107.3%
COc1ccccc1N1CCN(C(CNS(=O)(=O)c2cccs2)c2cccnc2)CC1 (stereo not drawn) | 123.1%
Nc1nncn1C(=O)c1cccs1 | -4.4%
Cc1ccc(CNC(=O)CN2CCC(C(N)=O)CC2)cc1 | -0.8%
Cc1nc(NC2CCCCC2)c2nc(-c3ccccc3)n(CCN3CCCCC3)c2n1 | 138.5%
O=C(NCc1ccco1)C1CCN(C(=O)Cc2ccccc2)CC1 | 14.3%
CC(C)Oc1ccc(C(=O)NC2CCS(=O)(=O)C2)cc1 (stereo not drawn) | -8.8%
COc1ccc(N2CCCCn3c2nc2c3c(=O)n(C)c(=O)n2C)cc1 | 36.5%
CCCCC(=O)NCCNc1nc2c(c(=O)n(C)c(=O)n2C)n1Cc1ccccc1 | 10.9%
COc1cc(C(=O)Nc2nnc(C)s2)cc(OC)c1OC | 9.3%
COCCn1c(=O)c(-c2ccccc2)nc2cnc(OC)nc21 | 18.5%
O=C(CCC1CCCC1)N1CCN(C(=O)C2CC2)CC1 | -2.4%
O=C(O)/C(Cc1ccc([N+](=O)[O-])cc1)=N/O | -3.6%[5.75 µM]
CCn1c(-c2cc(OC)ccc2OC)csc1=Nc1c(C)n(C)n(-c2ccccc2)c1=O | 96.0%
Cc1ccc(C2CC(C(F)(F)F)n3nc(C(=O)NCC4CCCO4)cc3N2)cc1 (stereo not drawn) | 92.3%
Cc1noc(C)c1CSc1nnc2ccc3ccccc3n12 | 10.5%
COc1ccc(NC(=O)C2CCN(S(=O)(=O)c3ccc(C)cc3)CC2)cc1OC | 10.8%
COc1ccc(CC(=O)c2ccc(O)cc2O)cc1OC | -12.1%
COc1ccc(NC(=O)C2CCCN(S(=O)(=O)c3cccc4nonc34)C2)c(OC)c1 (stereo not drawn) | 30.6%
O=c1c(-c2ccccc2)nc2cnc(N3CCNCC3)nc2n1-c1ccccc1 | 42.1%

The list goes on:
compound | AmpC inh no det
COc1ccc(OCc2nc(C#N)c(N3CCN(c4ccc(OC)cc4)CC3)o2)cc1 | 30.3%
Cc1ccccc1NC(=O)CSCCO | 4.3%
COC(=O)c1c(N)nc(C)n1-c1ccc(OC)cc1 | -1.8%
O=C1CS/C(=N\c2ccccn2)N1C1CCCCC1 | 7.5%
CCN(CC)c1ccc(NC(=O)CN2CCN(c3nc(C)cc(C)n3)CC2)cc1 | 137.0%
C=CCNc1nc2c(c(=O)[nH]c(=O)n2C)n1CCCCC | -2.8%
O[C@H](COc1ccccc1)CN1CCCCC1 | -6.0%[5.75 µM]
O=C(CSc1nc2scc(-c3ccco3)c2c(=O)n1-c1ccccc1)N1CCOCC1 | 113.6%
C=CCN1C(=O)C2C(C(=O)NCc3ccccc3)C3(C)C=CC2(O3)C1C(=O)NC(C)(C)C (stereo not drawn) | -0.3%
N#CCCCCn1c(-c2cncs2)nc2ccccc21 | -3.1%
CC(=O)n1cc(-c2ccncc2)c2ccccc21 | 3.16µM*[single pt active]
COCCn1c(=O)c(C)nc2cnc(N3CCNCC3)nc21 | 33.0%
CN1CCN(S(=O)(=O)c2ccc3ccccc3c2)CC1 | 18.9%
CC(CCc1ccccc1)NC(=O)CSc1nnnn1C (stereo not drawn) | 1.1%
CCCCN(C)C(=O)C1CCN(C/C(C)=C/c2ccccc2)CC1 | 26.3%
Cc1ccc(C(=O)c2cc(C)sc2NC(=O)CN2CCN(C(=O)c3ccco3)CC2)cc1 | -3.5%
Cn1cccc1C(C(=O)NC1CCCCC1)N(C(=O)Cc1cccs1)C1CC1 (stereo not drawn) | 11.6%
CCN1CC=C2C(C#N)=C(N)C(C#N)(C#N)C(CCc3ccccc3)C2C1 (stereo not drawn) | 16.6%
COc1ccc(-c2cc(C(=O)N3CCCc4ccccc43)no2)cc1 | 8.4%
Cc1ccc(N(CC(N)=O)C2SC(=O)N(C)C2=O)cc1 (stereo not drawn) | -9.9%

Following part:
compound | AmpC inh no det
NC(=O)c1ccccc1NC(=O)CCc1ccccc1 | -7.7%
CCn1c(N)nc2ccccc21 | -12.0%
COc1ccc(OC)c(Nc2nc(N)nc(-c3cc4ccccc4o3)n2)c1 | 73.0%
COC(=O)C1=C(C)N(c2cccc(Cl)c2)C(=O)C1 | 7.6%
COc1ccc(-c2noc(C3CCCN(S(=O)(=O)c4cccc(Cl)c4)C3)n2)cc1OC (stereo not drawn) | 78.6%
CC1CCCC(N2C(=O)NC(NC(=O)c3ccco3)(C(F)(F)F)C2=O)C1C (stereo not drawn) | 24.7%
CCOCCOC(=O)C1=C(C)N(C)C(=O)NC1c1ccccc1Cl (stereo not drawn) | 15.4%
O=S(=O)(c1cnc[nH]1)N1CCc2ccccc21 | 0.9%
O=c1oc(-c2ccccc2)nc2c1cnn2-c1ccccc1 | -5.9%
O=C(COC(=O)c1ccco1)Nc1ccc(Br)cc1 | -21.0%
O=C(COC(=O)c1cc(-c2cccs2)nc2ccccc12)NCc1ccco1 | 2.7%
COc1ccc(OC)c(NC(=O)NCc2ccc(F)cc2)c1 | -7.3%
C=CCN1C(=O)C2(C(C(=O)c3ccc(C)o3)=C(O)C(=O)N2CCCN2CCOCC2)c2ccccc21 (stereo not drawn) | -7.3%
Cc1nc2cnc(Nc3ccccc3)nc2n(CCC#N)c1=O | -13.6%
Cc1cc(C(=O)NC(C)c2ccc3c(c2)OCO3)cs1 (stereo not drawn) | -0.6%
CCC(C)Sc1nc(O)cc(=O)[nH]1 (stereo not drawn) | -9.8%
Cc1ccc(CN(C(=O)Cn2nnc3ccccc32)C(C(=O)NCc2ccco2)c2cccs2)cc1 (stereo not drawn) | 18.8%
O=C(NC1CCCC1)c1ccc(COCC(F)(F)C(F)F)o1 | 6.4%
CC1CCC(NC(=O)C2CCN(C(=O)NC3CCCCC3)CC2)CC1 (stereo not drawn) | 3.8%
CC(=O)C1=C(O)C(=O)N(c2nnn(C)n2)C1c1cccs1 (stereo not drawn) | -3.1%

Quoted from the listing.
Result of O=c1oc(-c2ccccc2)nc2c1cnn2-c1ccccc1 under AmpC inh no det: -5.9%
Result of COC(=O)C1=C(C)N(c2cccc(Cl)c2)C(=O)C1 under AmpC inh no det: 7.6%
Result of O=S(=O)(c1cnc[nH]1)N1CCc2ccccc21 under AmpC inh no det: 0.9%
Result of O=C(NC1CCCC1)c1ccc(COCC(F)(F)C(F)F)o1 under AmpC inh no det: 6.4%
Result of CC(=O)C1=C(O)C(=O)N(c2nnn(C)n2)C1c1cccs1 (stereo not drawn) under AmpC inh no det: -3.1%

Next records.
compound | AmpC inh no det
CN(C)CCCN1c2ccc(O)cc2Sc2ccc(Cl)cc21 | 11.6%[5.75 µM]
CC(C)C(NC(=O)C1CCCCC1)C(=O)Nc1ccccn1 (stereo not drawn) | -8.6%
Cc1onc(-c2ccccc2)c1C(=O)N1CCN(CCc2ccccc2)CC1 | 133.3%
O=S(=O)(NCCO)c1cccc2cccnc12 | 3.5%
COCc1cc(C)n(CC(=O)Nc2ccccc2C(=O)OC)c(=O)c1C#N | 0.4%
CCN(CCCNC(=O)COc1cc(=O)n(C)c2ccccc12)c1cccc(C)c1 | 133.2%
CCCN(CCC)S(=O)(=O)c1cccc(C(=O)Nc2ccc3c(c2)OCO3)c1 | -10.7%
CCOC(=O)c1cccc(C(=O)OCC)n1 | -9.9%
CCN(CC)c1ccc(CNc2ccc(Br)cn2)cc1 | -15.2%
O=C(O)C1CCCN1S(=O)(=O)c1ccc2ccccc2c1 (stereo not drawn) | -15.2%
CN(C)CCCN1CCC2(CCC(C(C)(C)C)CC2)CC1 | -0.9%[5.75 µM]
CN(C)c1ccc(NC(=O)c2cccc(N3C(=O)C4C5C=CC(C5)C4C3=O)c2)cc1 (stereo not drawn) | 29.1%
COc1cccc(N2CCN(Cc3nc(N)nc(N4CCCc5ccccc54)n3)CC2)c1 | 129.6%
O=C(CCS(=O)(=O)c1cccc2nsnc12)N1CCN(Cc2ccc3c(c2)OCO3)CC1 | 63.5%
CCOC(=O)C1CCCN(c2nnnn2-c2ccccc2)C1 (stereo not drawn) | 13.0%
C=CCOc1ccc(/C(O)=C2/C(=O)C(=O)N(CCCn3ccnc3)C2c2cccs2)cc1 (stereo not drawn) | 12.8%
O=S(=O)(c1ccccc1)N1CCC[C@@]2(CCN(Cc3ccccc3)C2)C1 | 26.2%
COc1ccc(S(=O)(=O)Nc2cc(C(C)C)c(O)cc2C)cc1 | -19.5%
CCCCn1c(=O)c(C(=O)NCc2ccncc2)c(O)c2ccccc21 | 100.0%
COc1cccc(Cn2c(=O)c(-c3ccc(Cl)cc3)nc3cnc(N4CCOCC4)nc32)c1 | 1.2%

Sorted by molecular weight (rising): some entries from above
compound | AmpC inh no det
O=C(O)C1CCCN1S(=O)(=O)c1ccc2ccccc2c1 (stereo not drawn) | -15.2%
CN(C)CCCN1c2ccc(O)cc2Sc2ccc(Cl)cc21 | 11.6%[5.75 µM]
COCc1cc(C)n(CC(=O)Nc2ccccc2C(=O)OC)c(=O)c1C#N | 0.4%

The results go on:
compound | AmpC inh no det
O=C(NCC1CCCO1)C1c2ccccc2C(=O)N1C1CCCCCC1 (stereo not drawn) | -8.8%
CCOc1ccc(-n2cc(C(=O)Nc3cccc(C)n3)c3cc(OC)c(OC)cc3c2=O)cc1 | 151.9%
Cc1cnc(CNc2cc(-c3ccccc3Cl)ncn2)cn1 | 16.6%
CCOC(=O)CCNC(C)C1COc2ccccc2O1 (stereo not drawn) | 8.1%
COc1ccc(C(=O)Oc2c(C)occc2=O)cc1OC | 3.3%
COc1cc2c(cc1OC)[C@H](C)NCC2 | 27.8%
COC(=O)c1c(C(=O)OC)c(C)n(Cc2ccco2)c1C | 8.7%
Cc1nn(C)c(C)c1S(=O)(=O)N(CC(=O)NCc1cccs1)c1ccc(C(C)C)cc1 | 68.0%
CCOc1ccc2nc(N3CCC(C(=O)N4CCN(C(=O)c5ccco5)CC4)CC3)sc2c1 | 158.8%
COc1ccc(Cc2nnc(SCC(=O)NCCc3ccccc3)o2)cc1 | 25.8%
CCOc1ccc(C(=O)N(C)C2CCS(=O)(=O)C2)cc1 (stereo not drawn) | -3.4%
O=C1CC(c2ccc3c(c2)OCO3)c2cc3c(cc2N1)OCCO3 (stereo not drawn) | -8.2%
CCOC(=O)c1cc2c(=O)n3ccccc3nc2n(CCCOC)c1=NC(C)=O | 20.2%
N=C(N)C(N=Nc1ccccc1)C(=N)N (stereo not drawn) | 8.2%[5.75 µM]
C[C@@]12CCC(=O)C=C1CC[C@@H]1[C@@H]2[C@H](O)C[C@]2(C)[C@@H]1CC[C@]2(O)C(=O)COC(=O)CCC(=O)O | 6.4%
Cn1c(=O)c2c(SCc3cccnc3)nc(C3CC3)nc2n(C)c1=O | 24.2%
O=C(c1ccc(CS(=O)(=O)c2ccccc2)o1)N1CCC2(CC1)OCCO2 | -4.1%
CCOC(=O)C1CCCCN1Cc1ccc(OC)c(OC)c1OC (stereo not drawn) | 0.4%
CCOC(=O)c1ccc(N2C(=O)c3n[nH]c(C)c3C2c2ccc(O)cc2)cc1 (stereo not drawn) | -13.9%
CCOC(=O)C1=C(C)NC(=O)NC1C1CC=CCC1 (stereo not drawn) | -0.2%

Carrying on:
compound | AmpC inh no det
Cc1cccc(NCc2nc(-c3ccccc3)no2)c1 | 2.51µM*[single pt active]
COC(=O)[C@@H]1CCCN1C(=O)[C@H]1C[C@@H]1[C@H](NC(=O)OCc1ccccc1)c1ccccc1 | 92.0%
Cn1cccc1Cc1nnc(SCC(=O)Nc2ccc(Cl)cc2)n1-c1ccc(F)cc1 | 76.8%
O=C1Nc2ccccc2C12OCC(COc1ccc(Cl)cc1)O2 (stereo not drawn) | 12.5%
CCOC(=O)C1=C(CNC2CCCCC2)NC(=O)NC1c1cc(C)ccc1C (stereo not drawn) | 1.5%
CC(C)CNS(=O)(=O)c1ccc(CCC(=O)NCC2CCCO2)cc1 (stereo not drawn) | 6.2%
COC(=O)c1ccc(Oc2cc(C)nc(-n3nc(C)cc3C)n2)cc1 | 96.5%
COCCCNc1nc2c(c(=O)[nH]c(=O)n2C)n1CC(O)COc1ccccc1C (stereo not drawn) | 50.0%
CCCCS(=O)CC(COCc1ccccc1)OC(=O)CSc1nc(C)cc(C)n1 (stereo not drawn) | 130.8%
CC(=O)CSc1ncnc2nc[nH]c12 | -3.9%
CCC1CCCCN1CCCNC(=O)C1CCC(=O)N1Cc1ccc(C)cc1 (stereo not drawn) | 10.1%
Cc1cc(NC(=O)c2ccc(COc3ccc(Cl)c(C)c3)o2)no1 | ?
CC1(C)CC(N(Cc2cccs2)C(=O)c2ccco2)CCO1 (stereo not drawn) | 3.7%
COc1ccc(CCNC(=O)c2ccco2)cc1 | 0.3%
Cc1ccc(C)c(N(C(=O)Cn2nnc3ccccc32)C(C(=O)NCc2ccco2)c2ccncc2)c1 (stereo not drawn) | 63.8%
O=C(c1ccccc1F)N1CCN(CC2CC3C=CC2C3)CC1 (stereo not drawn) | 20.3%
Cc1cc(C(=O)N2CCN(Cc3ccc4c(c3)OCO4)CC2)on1 | 23.7%
O=C(c1csnn1)N1CCC2(CC1)CCN(c1ccccc1)CC2 | 43.0%
COc1ccccc1N1CCN(C/C(C)=C/c2ccccc2)CC1 | 45.4%
CCNCCNC(=O)c1c(O)c2c([nH]c1=O)CCCC2 | -1.4%

Remaining list, next part:
compound | AmpC inh no det
Cc1ccc(OCC(O)CN2C(=O)NC(C)(C)C2=O)cc1C (stereo not drawn) | 13.2%
COc1ccccc1NC(=O)N1CCCC(C(=O)Nc2cccc(C)c2C)C1 (stereo not drawn) | 11.2%
COc1cccc(C2NC(C)(C(=O)O)C3C(=O)N(C(C)C)C(=O)C23)c1O (stereo not drawn) | 12.5%
c1cnc2c(OCc3nc4ccccc4[nH]3)cccc2c1 | -0.4%
Nc1ncc(Br)cc1S(=O)(=O)NCCC(=O)N1CCN(c2ncccn2)CC1 | 19.7%

A portion of the library (hit frequency here may not be typical).
